PABP polyA inh: PABP-poly(A) binding inhibition. AID 2014. hit rate 1% among 290,000. P11940. inhibition, % at 35 µM. PABP-poly(A) RNA binding, fluorescence polarization;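 active = 50% or more with normal probe brightness, or confirmed in later tests; about a fifth of its hits are not listed in these tables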;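 also: calls also rest on retests at 20 µM and on dose response follow-up; controls were probe without protein and protein plus probe with vehicle; some compounds called inactive have numbers as strong as hits; many hits fall short of the cut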
Env fusion inh: HIV envelope-mediated fusion inhibition. inhibition, % at 12.3 µM. hit rate 1.1% among 360,000. HeLa-JRFL Env/CEM21 cell fusion, luciferase;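 active = mean replicate inhibition score of at least 50 and every replicate individually at or above 50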;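 also: 0% = plate neutral controls and 100% = maraviroc near 300 nM; one replicate is shown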
MT1-MMP act inh: inhibitors of human MT1-MMP activation. GFP/RFP ratio change, % at 20 µM. AID 651647. HT1080 RFP-PRO-GFP cells, GFP/RFP ratio fluorescence, overnight; percent of plate control window, DMSO zero. hit rate 0.061% among 360,000. P50281;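 active = GFP/RFP ratio change of at least 30% with cell ATP level not reduced by more than half and red fluorescence within 50% of control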; also: strong numbers were not always called active
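Material: RFP-PRO-GFP reporter HT1080 cells. Dosing: single-point 20 µM compound, 1% DMSO. Controls: DMSO and RFP-L50D-GFP cell wells. Timing: cells overnight before dosing, compound overnight, 37 °C, 5% CO2. Measure: GFP/RFP fluorescence ratio.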
CSC inhib: cancer stem cell inhibition; cancer stem cell-like cells viability, luminescence; inhibition, % at 7.5 µM; hit rate 1.1% among 300,000; AID 2717;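 active = mean at 75% or more and at least half the replicates too; tested in HMLE shEcad cells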;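 also: 0% = median of negative and 100% = median of positive control wells; the first replicate is given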
UUG fidelity: alters start codon recognition fidelity in yeast. S. cerevisiae UUG-firefly luciferase reporter, luminescence/redox ratio. activity score, % at 18.7 µM. hit rate 0.13% among 350,000. AID 602363;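 active = replicate mean at a twofold rise or more, about +100% in these data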;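 also: firefly luciferase made from a UUG start codon reports start codon fidelity; reporter light over untreated wells divided by growth signal over untreated wells; some hits fall short of that in this replicate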
eIF4H inh: inhibitors of RNA binding by human eIF4H. Q15056. eIF4H fluorescence polarization binding assay. inhibition, % at 35 µM. hit rate 0.94% among 290,000. AID 2012;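 active = 50% or more with normal probe brightness, or confirmed in later tests; about a fifth of its hits are not listed in these tables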;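 also: calls also rest on retests at 20 µM and on dose response follow-up; 0% = protein and probe with vehicle and 100% = probe without protein; strong numbers were not always called active; many hits fall short of the cut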
Rce1 inhib: yeast Ras-converting enzyme inhibition; Q03530; yeast membranes, quenched prenylated peptide cleavage fluorescence; calls only; hit rate 0.27% among 290,000; AID 2563;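 active = fall in fluorescence gain of 50% or more versus controls, with final raw signal at or below 3038400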;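 also: plate controls were neutral control wells for no effect and wells lacking membranes for full effect; tested at 10 µM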
Target sequence (Q03530 whole entry, looked up): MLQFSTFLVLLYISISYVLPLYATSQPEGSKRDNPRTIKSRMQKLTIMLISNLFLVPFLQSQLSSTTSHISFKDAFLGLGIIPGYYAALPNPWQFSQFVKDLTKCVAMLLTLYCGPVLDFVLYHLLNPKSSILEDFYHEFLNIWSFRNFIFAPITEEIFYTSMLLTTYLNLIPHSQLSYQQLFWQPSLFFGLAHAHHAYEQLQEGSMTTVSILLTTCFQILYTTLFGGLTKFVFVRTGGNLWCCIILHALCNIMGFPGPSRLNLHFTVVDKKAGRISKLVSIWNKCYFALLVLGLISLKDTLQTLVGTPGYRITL
MT1-MMP act inh RFP: recorded beside MT1-MMP act inh, whose call it bears; RFP signal change, %; measured here: RFP expression control read;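 0 = vehicle wells; hits needed this value within 50% of zero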
The depositor's hits bear a star; i = inactive; / = no result given. An excerpt; count on the stated rates, not on these rows.

SMILES	PABP polyA inh	Env fusion inh	MT1-MMP act inh	MT1-MMP act inh RFP	CSC inhib	UUG fidelity	eIF4H inh	Rce1 inhib
Cc1ccc(NC(=O)C2CCN(S(=O)(=O)c3ccc4[nH]c(=O)ccc4c3)CC2)c(C)c1	4	14	5	4	-10	1	-8	i
Cc1ccc(NC2=NC3(CCCC3)N=C(N)N2)c(C)c1	1	7	-1	1	17	-15	5	i
O=S(=O)(NC1CCCCC1)c1cccs1	21	-3	2	-1	-7	-8	5	i
CC(=O)c1cnc(SCCN2C(=O)c3ccccc3C2=O)nc1C	-6	-32	-2	2	-12	-16	-12	i
CC(C)Oc1ccccc1/C=N/Nc1ccccc1[N+](=O)[O-]	2	8	7	-3	39	/	7	i
COc1ccc(CCNc2nc(-c3sc(N)nc3C)cs2)cc1OC	36	/	-7	3	/	-19	14	i
COc1ccc(C(=O)CCc2nc3ccccc3s2)cc1	-10	-33	2	7	/	-11	1	i
O=C(Cc1ccccc1)N/N=C/c1cccc([N+](=O)[O-])c1	-4	16	4	-1	/	/	6	/
COc1cc(CNC(C)(C)C)ccc1OCC(=O)NC(C)(C)C	-27	2	1	5	/	/	-4	i
FC(F)(F)c1cnc(Oc2ccccc2-c2nnc(-c3ccc(Cl)cc3)o2)c(Cl)c1	2	/	1	-13	-3	/	-7	i
CCn1c(SC(C)C(=O)Nc2ccc(N3CCOCC3)cc2)nnc1C1CC1 (stereo not given)	/	/	1	0	14	-9	/	/
Cc1ccc(NC(=O)CSCC(=O)N(CCC(C)C)c2c(N)n(Cc3ccccc3)c(=O)[nH]c2=O)cc1	/	-38	1	-4	/	-10	/	/
C/C=C/c1ccc(OCCCCOc2ccccc2F)c(OC)c1	11	0	1	-1	2	/	5	i
O=C(NCC1CCCO1)c1ccc(NC(=O)C2CCCCC2C(=O)O)cc1 (stereo not given)	-5	/	-1	2	-6	-18	2	i
CC1CCN(CC(O)COC2CCC(C(C)(C)C)CC2)CC1 (stereo not given)	-6	/	3	-3	64	-3	-1	/
Cc1ccc(S(=O)(=O)N(C)c2ccc(C(=O)N3CCc4ccccc4C3)cc2)cc1	-1	-10	-4	-4	/	4	-2	i
CC1CCN(c2ccc3c(c2)S(=O)(=O)c2cccc(C(=O)NCc4cccc(F)c4)c2C3=O)CC1	/	15	-132	-4	47	-16	/	/
CCN(CC)C(=O)Sc1cccc2cccnc12	-3	/	-4	-2	-23	-32	-3	i
C=CCn1c(SCC(=O)Nc2ccc(C)cc2C)nnc1-c1cccnc1	1	/	3	7	-18	-19	3	i
COc1ccc(N2CCN(C(=O)CCNS(=O)(=O)c3ccc4c(c3)CCC(=O)N4)CC2)cc1	-6	38	2	2	/	-12	-2	/
CCOC(=O)C1=C(C)n2c(s/c(=C3\C(=O)Nc4ccccc43)c2=O)=NC1c1ccc(OC)cc1 (stereo not given)	-6	7	3	4	1	/	1	i
Cn1nc(C(F)(F)F)c(/C=N/OC(=O)c2ccccc2)c1Sc1ccc(Cl)cc1	-9	/	-18	-23	-7	/	-4	i
CC(=O)Nc1ccc(NS(=O)(=O)c2ccccc2)c2ccccc12	-2	-9	0	2	-15	-21	-5	i
CCCn1c(=O)c2c(c3ccccc31)OCC(=O)N2	1	/	4	1	-9	-14	-11	i
N#Cc1c(NC(NC(=O)c2ccco2)C(=O)c2ccccc2)sc2c1CCCC2 (stereo not given)	1	-6	-4	-8	33	-15	0	i
CC1=C/C(=C(/c2cc(C)c(O)c(Br)c2)c2ccccc2S(=O)(=O)O)C=C(Br)C1=O	/	25	63*	45*	31	-9	/	i
O=C(CCc1nc2ccccc2c(=O)[nH]1)OCC(=O)c1ccc(C2CCCCC2)cc1	-12	/	-1	-3	1	1	-6	i
CC(C)c1cccc(C(C)C)c1NC(=O)CCl	-15	-7	-6	-7	-7	/	-4	i
Cc1ccccc1C(=O)NC1CCSC1=O (stereo not given)	-7	-5	-1	8	-4	-20	-6	i
CCc1ccccc1NC(=O)Cn1nnc(-c2cccs2)n1	5	/	3	1	/	-24	-6	i
O=C(O)C1CCCCC1C(=O)NCc1ccncc1 (stereo not given)	5	/	3	5	/	-19	3	i
CC(=O)N1c2ccc(S(=O)(=O)NCC3CCC(C(=O)N4CCC(C)CC4)CC3)cc2CC1C (stereo not given)	0	0	1	-4	-2	-7	4	i
O=C(NC1=NCCS1)c1cccc(N2C(=O)c3ccccc3C2=O)c1	6	4	3	5	-8	/	-4	i
COC(=O)c1ccc(COc2ccccc2/C=C(\C#N)C(=O)NC(C)C)cc1	-7	7	-2	-1	-14	/	-1	i
COc1ccc(C(C)N2CC34C=CC(O3)C(C(=O)O)C4C2=O)cc1 (stereo not given)	-7	/	-2	-1	-21	-6	-4	i
COCC(=O)NC1CCN(S(=O)(=O)c2ccc(C(=O)O)cc2)CC1	11	13	1	-1	-19	-7	-7	i
Cc1cc(C)c(C#N)c(SCC(=O)Nc2ccc3c(c2)OCO3)n1	11	-83	-3	-2	1	-14	-9	i
NS(=O)(=O)c1cc(C(=O)OCC(=O)c2ccccc2)c(Cl)cc1Cl	9	-10	4	2	/	/	-2	i
O=C(Nc1cc(-c2ccccc2)cs1)c1ccco1	/	-50	11	-3	/	-24	/	/
COc1ccc(CCNC(=O)COc2cc(=O)n(C)c3ccccc23)cc1OC	-1	-6	3	5	-21	/	6	i

Exported with two lines to a compound: part of the list above
Order of results: PABP polyA inh | Env fusion inh | MT1-MMP act inh | MT1-MMP act inh RFP | CSC inhib | UUG fidelity | eIF4H inh | Rce1 inhib
COC(=O)c1ccc(COc2ccccc2/C=C(\C#N)C(=O)NC(C)C)cc1
    -7 | 7 | -2 | -1 | -14 | / | -1 | i
COc1ccc(C(C)N2CC34C=CC(O3)C(C(=O)O)C4C2=O)cc1 (stereo not given)
    -7 | / | -2 | -1 | -21 | -6 | -4 | i
COCC(=O)NC1CCN(S(=O)(=O)c2ccc(C(=O)O)cc2)CC1
    11 | 13 | 1 | -1 | -19 | -7 | -7 | i
Cc1cc(C)c(C#N)c(SCC(=O)Nc2ccc3c(c2)OCO3)n1
    11 | -83 | -3 | -2 | 1 | -14 | -9 | i
NS(=O)(=O)c1cc(C(=O)OCC(=O)c2ccccc2)c(Cl)cc1Cl
    9 | -10 | 4 | 2 | / | / | -2 | i

(next part)
SMILES	PABP polyA inh	Env fusion inh	MT1-MMP act inh	MT1-MMP act inh RFP	CSC inhib	UUG fidelity	eIF4H inh	Rce1 inhib
CCc1nc2ccc(C(=O)N3CCN(C(=O)c4ccco4)CC3)cn2c1N(CC)CCOC	/	-23	-4	0	/	-18	/	/
CCn1c(C(=O)N2CCCC(C(=O)NCCc3ccc(C)cc3)C2)cc2sccc21 (stereo not given)	-3	/	3	-10	-9	18	-6	/
Cc1cccc(C)c1NC(=O)NC1(C(=O)N2CCOCC2)CCCCC1	-8	11	3	0	-16	/	0	i
COCCCN(C(=S)Nc1cc(Cl)cc(Cl)c1)C(C)c1ccncc1 (stereo not given)	2	19	2	1	25	/	3	i
COc1cc(CCC(=O)OCC(=O)Nc2ccccc2C(C)C)cc(OC)c1OC	5	3	-4	-1	-25	17	-1	i
NC(=O)[C@@H]1CC2(CC(c3cccc(NC(=O)COc4ccc(Cl)cc4)c3)=NO2)CN1C(=O)c1ccccc1 (stereo not given in full)	9	11	6	-4	-5	-23	-3	i
CN(c1ccccc1)c1nc(N)c(C#N)c(CC#N)c1C#N	3	2	0	5	/	4	-12	i
O=C(Cn1c(C(F)(F)F)nc2ccccc21)Nc1ccccc1C(=O)O	-8	22	6	6	-5	-11	-7	i
Cc1cc(C)c2nc(C)cc(N/N=C/c3ccc(O)cc3)c2c1	13	-118	-30	-34	103*	-16	-6	i
FC(F)Oc1ccccc1C1CC(c2ccc(Br)s2)Nc2ncnn21 (stereo not given)	-1	/	-1	-4	2	-4	-6	/
O=C(COC(=O)c1c(F)cccc1F)c1ccc[nH]1	-2	/	/	/	-11	/	-1	i
O=C(NCc1ccco1)c1cccnc1-c1nc2ccccc2s1	11	-38	2	5	-6	2	-12	i
Cc1cccc(NC(=O)CSc2nnc(-c3ccccc3)n2N)c1C	4	-14	2	1	-6	1	-11	i
CC(C)(C)c1ccc(C(=O)NN2CCOCC2)cc1	7	/	-3	5	-12	-8	5	i
CCc1ccc(CCC(=O)Nc2ncc(Cc3ccccc3Cl)s2)o1	0	4	10	-8	82*	-10	-1	i
COc1ccc(CNS(=O)(=O)c2ccc3c(c2)NC(=O)C(C)S3)cc1 (stereo not given)	10	1	-2	-3	-4	5	8	i
O=C(Cn1nc2ccccc2n1)N/N=C/c1cc(Cl)cc([N+](=O)[O-])c1O	-7	2	-9	-6	/	/	24	/
Cc1ccc(N=C2SCCCN2C(=O)c2ccco2)cc1Cl	-5	-15	-3	-1	-13	-12	-2	i
Cc1noc(C)c1S(=O)(=O)N1CCC(C(=O)NCCc2ccc(S(N)(=O)=O)cc2)CC1	0	/	3	1	-19	-11	-11	i
Cc1n[nH]c(C)c1CN(C)C(=O)c1cc(COc2ccc(F)c(F)c2)on1	5	7	1	-5	3	-10	-4	i
Cc1ccc(C)n1-n1cnc2scc(-c3cccs3)c2c1=O	-2	/	4	2	-1	/	-4	i
Cc1cc(C2=CC(=O)C[C@H](c3ccc(F)cc3)C2)ccc1F	/	10	2	-5	/	-14	/	/
CC1CN(c2ccc(Oc3ccccc3)cc2)c2nc3c(c(=O)[nH]c(=O)n3C)n2C1 (stereo not given)	6	/	-2	1	/	-11	0	i
CC1CCN(C(=O)Cn2nc(C(F)(F)F)c3c2CCCC3)CC1	-6	-31	-2	3	8	-10	8	i
COc1ccc(CC(=O)NNC(=O)CSc2ccc(C)cc2)cc1	9	8	4	2	-11	-6	-5	i
CCOC(=O)CNC(=O)CSc1ccc2nnc(-c3ccc(F)cc3)n2n1	5	1	3	-1	-22	/	-14	i
CC(=O)NNC(=O)CSc1nnc(-c2ccccc2)c(-c2ccccc2)n1	28	2	2	2	-1	-21	46	i
CCSc1nnc(NC(=O)CCc2ccccc2)s1	3	/	4	7	4	-16	-4	i
COc1ccc(C)c2sc(N3CCCC3)nc12	0	-29	6	4	-24	-15	-13	i
CCCS(=O)(=O)Nc1cc(C(F)(F)F)ccc1OCCOC	5	-162	0	0	2	-17	4	i
N#Cc1ccc(CN2C(=O)NC3(CCCCCC3)C2=O)cc1	-6	-3	1	3	-12	2	-21	/
COc1cc(/C=N/NC(N)=S)cc(Br)c1OCc1ccccc1F	-6	41	-36	-27	-30	/	-8	i
CCOC(=O)C1=C(COC(=O)CCOc2cccc(C)c2)NC(=O)NC1C (stereo not given)	/	/	8	3	1	10	/	i
O=C(NCc1ccncc1)Nc1cccc(Cl)c1	-1	/	-1	2	-13	-51	4	i
COc1nc(N(C)C)nc(N(C)c2cc(Cl)cc(Cl)c2)n1	8	-1	4	-4	-8	-4	-2	i
Cc1ccc(Cn2c(C)c(C(=O)NCc3ccc(Cl)c(Cl)c3)sc2=O)cc1	/	10	8	-3	/	-17	/	/
COc1cc(C(=O)Nc2cccc(-c3nc4ncccc4o3)c2C)cc(OC)c1OC	-3	/	5	4	12	-13	-4	i
CCOC(=O)c1cc(-c2nnc(-c3ccc(Cl)cc3)o2)c(C)nc1C	1	-5	9	6	-14	-15	0	i
Cc1cccc(C)c1OCCCCn1cnc2ccccc2c1=O	-5	-1	3	-5	-10	1	-6	i
O=C1OC[C@H]2CCCC[C@@H](CO)ON12	/	-20	2	2	/	-2	/	/
COc1ccc(-c2cc(C)no2)cc1S(=O)(=O)N1CCCN(Cc2ccc(F)cc2)C1	5	-2	0	-1	12	-10	7	i
CCN1CCN(C(=O)CN(C)S(=O)(=O)c2cc(C)ccc2OC)CC1	2	12	1	5	4	/	-14	i

Screens deposited in PubChem by several laboratories.
